Mtb growth = M. tuberculosis H37Rv growth inhibitors, H37Rv strain (AID 1626) | M. tuberculosis H37Rv growth inhibition; higher % means a stronger effect | one-dose inhibition, % at 10 µM; IC50 in µM for titrated hits | 0.95% of 220,000 active;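 active = confirmed in a dose series; inconclusive = inhibition above 80% but not taken into the dose series; inactive = below 80% or under 30% at every dose of the series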;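 also: bacteria incubated seven days before Alamar blue readout; 0% = bacteria only wells and 100% = bacteria with antibiotic wells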
Arbovirus inh = arbovirus infection inhibition. arbovirus infection cell-based antiviral screen. inhibition, % at 10 µM. 0.37% of 200,000 active. AID 1251;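 active = inhibition from about 30%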;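 also: bluetongue infection of BSR cells; cell survival read as ATP light after 72 h; 0% = infected wells without compound and 100% = uninfected wells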
Mtb betalactam = beta-lactam sensitization of Mtb H37Rv | inhibition, % at 25 µM | 0.27% of 330,000 active | AID 434955 | M. tuberculosis H37Rv growth with meropenem, percent inhibition; hits of this screen are not shown here;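 active = about 74% or more and at least 40 points above the plate without the antibiotic, then above 30% in a dose series; inconclusive = first-round hits that could not be retested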;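 also: growth measured after seven days incubation then overnight dye step; 0% = bacteria only wells and 100% = bacteria with antibiotic; twin plates without the antibiotic show which effects depend on it; some results filed as inactive read as strong as hits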
RecA intein inh = blocks M. tuberculosis RecA intein splicing; cell-free RecA intein splicing, fluorescence; inhibition, %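 (about 9 µM by stock and volumes)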; 0.75% of 290,000 active; in the data active = inhibition above about 30%; inconclusive = no clear call, values can overlap the other calls;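 also: 0% = vehicle wells and 100% = reference inhibitor control wells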
Target sequence (P9WHJ3 whole entry, looked up): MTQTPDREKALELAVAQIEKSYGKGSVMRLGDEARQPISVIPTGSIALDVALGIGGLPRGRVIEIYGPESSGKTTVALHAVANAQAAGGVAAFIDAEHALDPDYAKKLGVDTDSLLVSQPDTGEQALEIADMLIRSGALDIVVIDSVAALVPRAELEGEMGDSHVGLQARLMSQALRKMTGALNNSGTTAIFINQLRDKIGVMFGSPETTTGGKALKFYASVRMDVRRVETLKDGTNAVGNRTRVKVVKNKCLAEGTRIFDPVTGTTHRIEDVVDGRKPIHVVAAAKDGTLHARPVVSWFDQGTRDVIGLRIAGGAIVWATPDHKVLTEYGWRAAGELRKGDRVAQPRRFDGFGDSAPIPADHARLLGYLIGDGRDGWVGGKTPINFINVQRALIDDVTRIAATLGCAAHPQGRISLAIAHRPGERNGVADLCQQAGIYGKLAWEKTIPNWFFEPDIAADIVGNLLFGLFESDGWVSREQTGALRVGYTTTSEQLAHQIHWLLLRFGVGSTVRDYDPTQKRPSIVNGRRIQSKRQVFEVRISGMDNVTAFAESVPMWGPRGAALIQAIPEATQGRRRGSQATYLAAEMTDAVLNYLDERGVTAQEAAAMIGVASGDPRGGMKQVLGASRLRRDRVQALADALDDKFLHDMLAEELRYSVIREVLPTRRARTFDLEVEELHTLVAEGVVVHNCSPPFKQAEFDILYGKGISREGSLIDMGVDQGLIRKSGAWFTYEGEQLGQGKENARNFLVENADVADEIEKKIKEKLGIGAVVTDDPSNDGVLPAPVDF
YopH inh = inhibitors of Yersinia enterocolitica YopH tyrosine phosphatase; 0.16% of 140,000 active; AID 898; fluorescence Ex485/Em525; inhibition, %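 (about 10 µM by stock and volumes)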;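 active = inhibition of 50% or more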;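 also: controls were vehicle for no effect and minimum signal wells for full effect; inactives centre near -20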
Arbovirus inh repeat = also measured in Arbovirus inh; calls as there; inhibition, %; measured here: 10K subset replicate screen; many hits read low in the repeat;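 first of two repeat runs on a subset; 0% = infected and 100% = uninfected wells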
Starred values were filed as active, the others as inactive; ? = inconclusive; . = not tested or not shown. This is a subset; rates above refer to the full screens.

Start of the listing, in advance (seven entries):
SMILES	Mtb growth	Arbovirus inh	Mtb betalactam	RecA intein inh	YopH inh	others
COc1cccc(CNS(=O)(=O)c2c(C)[nH]c(C)c2C(=O)N2CCCCC2)c1	.	.	-1	-1.5	.
CCN(Cc1nc2ccccc2c(=O)[nH]1)Cc1nc2cc(OC)c(OC)cc2c(=O)[nH]1	-5%	2	71	-4.4	-1
CCOc1ccc(/C=C/C(=O)Nc2ccc(N3CCOCC3)cc2)cc1	.	-16	5	1.8	-40
Cc1nnc(NCc2n[nH]c(=O)c3ccccc23)c2ccccc12	-4%	-7	-3	-1.9	-19
CCN(CC)P(=O)(Oc1ccccc1)Oc1ccccc1	8%	.	0	-2.3	.
CCOC(=O)c1sc(NC(=O)c2sc(C)nc2C)nc1C	.	.	?	4.9	.
O=C(CCCCCCCCC(=O)N/N=C/c1ccco1)N/N=C/c1ccco1	1%	-5	0	-0.4	-1

The whole of this part (from the top)
SMILES	Mtb growth	Arbovirus inh	Mtb betalactam	RecA intein inh	YopH inh	others
COc1cccc(CNS(=O)(=O)c2c(C)[nH]c(C)c2C(=O)N2CCCCC2)c1	.	.	-1	-1.5	.
CCN(Cc1nc2ccccc2c(=O)[nH]1)Cc1nc2cc(OC)c(OC)cc2c(=O)[nH]1	-5%	2	71	-4.4	-1
CCOc1ccc(/C=C/C(=O)Nc2ccc(N3CCOCC3)cc2)cc1	.	-16	5	1.8	-40
Cc1nnc(NCc2n[nH]c(=O)c3ccccc23)c2ccccc12	-4%	-7	-3	-1.9	-19
CCN(CC)P(=O)(Oc1ccccc1)Oc1ccccc1	8%	.	0	-2.3	.
CCOC(=O)c1sc(NC(=O)c2sc(C)nc2C)nc1C	.	.	?	4.9	.
O=C(CCCCCCCCC(=O)N/N=C/c1ccco1)N/N=C/c1ccco1	1%	-5	0	-0.4	-1
O=C(Nc1ccccc1)c1oc2ccccc2c1NC(=O)C1CC1	.	.	2	0.1	.
CCCC(=O)Oc1ccc2c(C)cc(=O)oc2c1	?	-4	79	-15	-34
C=C(C)CSc1nc2sc3c(c2c(=O)n1C1CCCCC1)CCN(C)C3	?	.	92	12	.
Cc1csc2c(N3CCCCC3)ncnc12	2%	.	2	0.6	.
Cc1oc2cc3oc(=O)cc(C)c3cc2c1C	.	.	?	0.4	.
COCc1cc(C)nc(SCC(=O)Oc2ccccc2)c1C#N	-3%	-3	58	-19	.
Cc1ccc(C2N(C)C(=O)c3ccccc3N2C)cc1 (stereo unspecified)	.	.	-5	-1.0	.
Cc1ccccc1OCCCCc1c(C)n[nH]c1C	?	18	100	8.6	-52
Cc1ncc(CO)c2cc(-c3nnc(Nc4ccc5c(c4)OCO5)s3)c(=O)oc12	-2%	.	2	-1.1	.
Cc1cccc(OCC(=O)Nc2ncn[nH]2)c1C	-14%	.	5	-0.7	.
COc1cc2c(cc1OC)C(=O)N(C)CC2	6%	7	-6	7.3	.
O=C(Cc1c(F)cccc1Cl)N1CCOCC1	-1%	4	1	-4.9	.
Cc1cccc(OCC(O)CN2CCNCC2)c1 (stereo unspecified)	.	.	-4	-2.2	.
COc1ccc(Cn2c(C)nnc2-c2cnn(C)c2N)cc1	-1%	3	-8	.	.
CC(C)OC(=O)c1nnn(-c2nonc2N)c1CSc1ccccn1	-4%	1	-7	2.2	-42
CC(C)N(Cc1ccccc1)C(=O)COC(=O)/C=C/c1cnc2ccccc2n1	?	0	94	-0.6	.
Cc1ccc(C)c(N2CCN(S(=O)(=O)c3c(C)[nH]c(C)c3C(=O)N3CCCCC3)CC2)c1	.	.	0	3.0	.
CN1CCN(c2nc(-c3ccncc3)nc3ccccc23)CC1	4%	-17	-11	-0.4	-18
CCCc1nnc(SCC(=O)N2CCCC2)n1CC1CCCO1 (stereo unspecified)	-4%	6	-8	1.5	-36
O=C(CCC(=O)Nc1ccccc1)NNC(=O)c1cccs1	0%	8	89	3.7	-32
CC(C)(C)C(=O)NC(=S)Nc1cc(C(F)(F)F)ccc1N1CCOCC1	4%	-1	8	1.4	-7
OC(C#CCN1CCOCC1)c1cccs1 (stereo unspecified)	-10%	-1	8	3.1	-42	Arbovirus inh repeat=-1
CCOC(=O)CSc1nc2sc3c(c2c(=O)n1-c1ccccc1)CCN(C(C)C)C3	.	.	45	-2.2	.
CCOC(=O)N1CCN(C(=O)/C=C/c2c(C)nn(-c3ccc(F)cc3)c2Cl)CC1	1%	-2	.	-0.6	.
COc1ccnc(Oc2ccc(F)cc2)c1C(=O)N/C=N/OCc1ccc(Cl)cc1Cl	5%	20	9	7.1	-40
Cc1ccc(CC2SC(N=C(N)N)=NC2=O)cc1 (stereo unspecified)	.	.	11	-6.7	.
CCOC(=O)Cn1nnnc1CN(Cc1ccc(OC)cc1)Cc1cc2cc(C)ccc2[nH]c1=O	5%	9	2	4.6	-24
CCC(C)NC(=O)COc1ccc(OCc2ccccc2)cc1 (stereo unspecified)	2%	29	0	-3.5	.
CCCn1c(SCC(=O)c2cc(C)n(-c3ccc4c(c3)OCO4)c2C)n[nH]c1=O	8%	8	2	-1.9	-15
COc1ccccc1OCCC(=O)OCC(=O)NCc1ccc(Cl)cc1	0%	0	-3	3.4	.
N=C1C(c2nc(-c3ccc(F)cc3)cs2)=C(O)CN1CCCN1CCOCC1	-14%	23	8	2.0	5
COc1cc(C(=O)Nc2cc(-c3ccccc3)[nH]n2)cc(OC)c1OC	-4%	-14	-1	1.1	.
COc1ccc(CN2CCNC(=O)C2CC(=O)NC2CCCCCC2)c(C)c1C (stereo unspecified)	.	.	-9	0.6	.
CCCOc1cccc(C(=O)Nc2cc(NC(=O)c3ccco3)ccc2OC)c1	5%	-24	7	0.1	1
COc1cc(C)ccc1OCCOCCN(C)Cc1ccccc1	10%	-3	-1	-1.2	-32
O=C(CCCCCCCC(=O)NCC1CCCO1)NCC1CCCO1 (stereo unspecified)	-5%	11	3	2.7	20
C=CCn1c2ccccc2c(=O)c2cc(C#CC3(O)CCCCC3)ccc21	.	.	-4	-77	.
CCOc1cc(-c2nc(-c3cc(OC)c(OC)c(OC)c3)no2)cc(OCC)c1OCC	-1%	.	2	-1.2	-44
CC(C)n1nc(Cc2cccc3ccccc23)c(C#N)c1N	-1%	.	1	-0.8	.
CC(C)(C)OC(=O)N1CCC(CC2CC(c3cccc(Br)c3)=NO2)(C(=O)O)CC1 (stereo unspecified)	.	.	7	-1.0	.
COc1ccc(-c2noc(-c3cccc(Cl)c3)n2)cc1OC	6%	11	1	0.2	-23
COc1ccc(C(=O)Oc2cc(C)c(CN3CCOCC3)cc2C)cc1OC	.	.	79	2.7	.
Cc1noc(C)c1CNCc1ccccc1	.	.	7	-3.0	.
COCCNC(=S)N(C)C1(c2ccccc2Cl)CCCCC1=O (stereo unspecified)	2%	1	2	-0.4	.
Cc1ccc(C(=O)COC(=O)CCN2C(=O)C3C4C=CC(C5CC45)C3C2=O)cc1 (stereo unspecified)	.	.	19	2.0	.
Cc1cc(C(=O)Nc2ccc3c(c2)CCC3)c2ccccc2n1	0%	-6	-7	0.0	.
Cc1ccc(C(=O)NCCc2ccc(S(=O)(=O)N3CCCC3)cc2)cc1	6%	1	-1	-0.3	.
N/C(=N\[N+](=O)[O-])NCCCC(NC(=O)CNC(=O)c1ccccc1)C(=O)O (stereo unspecified)	-6%	-4	3	2.9	.
COCCCN1C(=O)C(=O)/C(=C(/O)c2ccc(S(=O)(=O)N3CCCCC3)cc2)C1c1cccc(OC)c1 (stereo unspecified)	.	.	2	-0.8	.
NS(=O)(=O)c1ccc(NC(=O)COC(=O)c2c3c(nc4ccccc24)/C(=C\c2ccc4c(c2)OCO4)CCC3)cc1	?	-27	34	.	-29
CC(=O)c1cc(F)ccc1OCC(=O)N1CCCc2ccccc21	.	.	-3	7.3	.
C=CCN=C1SCC(=O)N1S(=O)(=O)c1ccc(C)cc1	-6%	3	-8	1.0	-58
CCn1c(C2CCN(S(=O)(=O)c3ccc(OC)cc3)CC2)n[nH]c1=S	3%	6	1	1.9	.

The listing continues:
SMILES	Mtb growth	Arbovirus inh	Mtb betalactam	RecA intein inh	YopH inh	others
O=C(Nc1ccc(S(=O)(=O)N2CCCCCC2)cc1)c1[nH]ncc1[N+](=O)[O-]	.	.	2	1.2	.
O=C(CN(CC1CCCO1)C(=O)CNS(=O)(=O)c1ccc(F)cc1)NCc1ccc(F)cc1 (stereo unspecified)	.	.	-2	-6.8	.
O=C(O)c1ccc(-c2nc(-c3ccc(Cl)cc3)cs2)cc1	89µM*	41*	.	4.5	.
C=CCOn1c(=O)c(-c2cccs2)[n+]([O-])c2ccccc21	1%	-10	1	-1.9	15
CC(=O)Nc1ncc(Cc2cccc(Cl)c2Cl)s1	5%	-3	0	2.7	.
Cc1nc(N)c(Cc2ccc(Cl)cc2Cl)c(N)n1	2%	9	-6	3.2	.
N#CC[C@H](Cc1ccccc1)N1CC[C@@H](O)CCC1=O	.	.	-5	-0.2	.
Cc1cc(C)c2c(N)c(C(=O)c3ccc(Cl)c(Cl)c3)sc2n1	4%	-16	-7	-2.0	.
CN1CCC(n2nccc2N)CC1	1%	1	2	1.7	-41
Cc1ccc(S(=O)(=O)Nc2nc(-c3ccc(F)cc3)cs2)cc1	-5%	.	-4	5.2	.
C/C(=C\c1ccccc1)CN1CCC(C(=O)N2CCCCC2)CC1	2%	2	-3	-0.8	-17
CCOc1ccc(-c2cnc3n2CCCCC3)cc1	.	.	3	-0.4	.
CN(CC(=O)Nc1ccccc1C(F)(F)F)C(=O)COc1ncnc2ccccc12	7%	22	-1	-1.1	.
O=C(O)C1CCCN1S(=O)(=O)c1cccc(S(=O)(=O)N2CCCC2C(=O)O)c1 (stereo unspecified)	.	.	-4	-2.4	.
CCCCN1C2CCCC1CC(NC(=O)C1CCCCC1)C2 (stereo unspecified)	-11%	-1	6	2.5	-27
COc1ccc(CN(Cc2cc3cc(C)ccc3[nH]c2=O)C(=O)N(C)C)cc1	-2%	1	-3	0.7	-33
COc1ccc(C2C(C(=O)c3ccc(C)o3)=C(O)C(=O)N2c2cc(C)on2)cc1OC (stereo unspecified)	-8%	1	-8	-1.1	-37
CCn1cc(C(=O)O)c(=O)c2cnc(N3CCN(C(=S)NC(=O)c4ccc(Cl)cc4Cl)CC3)nc21	.	.	4	-1.0	.
O=C(CSc1nnc(Cc2cc(=O)[nH]c(=O)[nH]2)n1-c1ccc(Cl)cc1)NC1CCCC1	-1%	0	2	.	-55	Arbovirus inh repeat=2
CCCCSc1nc(C)cc(NC(=S)Nc2ccc(OC)cc2)n1	-3%	-26	-9	-1.3	-9
Cc1ccc(-c2nn(-c3ccccc3)cc2C(=O)N2CCOCC2)cc1	-2%	0	-3	-1.0	-23	Arbovirus inh repeat=3
Nn1c(Cc2ccccc2F)n[nH]c1=S	-2%	2	-2	9.1	.
COc1cccc(C(=O)Nc2ccc(C3CC3(Cl)Cl)cc2)c1 (stereo unspecified)	8%	-21	3	0.8	.
COc1ccc(-c2nc3ncccc3n2O)cc1	.	.	-6	1.5	.
CCOc1ccccc1NC(=O)C1CCCN(S(=O)(=O)c2c(C)[nH]c(=O)[nH]c2=O)C1 (stereo unspecified)	-2%	-4	4	-3.8	2
C=CCNC(=O)COc1cc(C)ccc1C	-14%	3	-4	1.3	-14
Cc1cc(C)n(-c2ccc(C(=O)Nc3cccc([N+](=O)[O-])c3)cc2)n1	4%	5	-4	3.9	.
O=C(c1ccc(F)c(S(=O)(=O)N2CCOCC2)c1)N1CCc2ccccc21	.	.	0	-0.7	.
CS(=O)(=O)c1ccc(Cl)c(NC(=O)CCCc2nc3ccccc3c(=O)[nH]2)c1	.	.	-13	0.1	.
CCCCNC(=O)Oc1cccc(N2CCCC2=O)c1	0%	0	86	2.4	-78
O=C(c1ccncc1)N1CCc2ccccc2C1	.	.	-1	1.4	.
COc1ccc(-c2ccnc(-c3ccc(OCCCF)cc3)n2)cc1	7%	5	73	2.5	-35
CC(=O)NCCn1c(SCc2ccc(C)cc2)nc2ccccc2c1=O	-1%	-5	-8	-1.1	-44
O=C(NNC(=O)c1cccs1)c1ccc(Br)cc1	.	.	-1	5.1	.
C=C(C)CNC(=S)Nc1cccc2cnccc12	-12%	-1	10	2.2	-20
Cc1cccc(C)c1OCCn1nnc2ccccc21	.	.	7	1.8	.
CCOc1ccccc1NC(=O)CSc1c(C)n[nH]c1C	-3%	13	-8	1.5	-24
Cc1nc2c(c(C)c1C#N)C(=O)c1ccccc1-2	-8%	-6	21	0.2	-8
CN1/C(=C\C(=O)c2cccs2)C(C)(C)c2ccccc21	56%	1	59	-23	-21
COCCNc1c(-c2ccc(OC)cc2)nc2ccc(Cl)cn12	62%	-1	8	-14	.
COc1ccccc1NCCC(=O)OCC(=O)NCc1ccco1	-7%	1	-8	-1.7	-38

Screening results from PubChem.
